Compound activity (PubChem BioAssay)
Tau fibril FP: qHTS for Inhibitors of Tau Fibril Formation, Fluorescence Polarization | Potency, µM (doses to about 57.7 µM), for inactives: at the highest dose activity, negative = inhibition, most hits filed as inhibitors | hit rate 0.39% among 280,000 | K18 P301L tau heparin fibrillization, Alexa594 FP, 6 h; note: % is set by controls: 0 for no effect and ±100 for the full control effect; nearly all actives have a fitted effect of over 55% in size
Target sequence (P10636 561-689 P618L limits assumed): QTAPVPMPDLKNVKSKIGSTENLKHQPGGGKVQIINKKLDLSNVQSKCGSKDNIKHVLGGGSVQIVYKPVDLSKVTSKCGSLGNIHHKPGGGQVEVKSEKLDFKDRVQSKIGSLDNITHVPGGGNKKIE
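Read-out: fluorescence polarization of Alexa 594-labeled tau (0.24 uM), 555 nm excitation, 632 nm emission. Mixtures held 15 uM unlabeled K18 P301L, compound and 20 uM heparin, pH 7 acetate buffer, incubated 6 hr at 37 C.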
Tau fluor cs: Counterscreen qHTS for Inhibitors of Tau Fibril Formation, Fluorescence Polarization | tau K18 P301L Alexa594 fluorescence, heparin fibrillization | Potency, µM (series often up to 57.7 µM), for the others: at the highest dose activity change, negative = decrease | hit rate 0.93% among 280,000 | AID 1463, 2008; note: % is set by controls: 0 for no effect and ±100 for the full control effect; nearly all actives have a fitted effect of over 55% in size
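Human K18 P301L tau (15 uM unlabeled plus 0.24 uM Alexa 594-labeled, final) in 100 mM sodium acetate pH 7 was mixed with compound and 20 uM heparin and incubated 6 hr at 37 C.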
SMN2 splice up: qHTS Assay for Enhancers of SMN2 Splice Variant Expression. AID 1458, 2008. hit rate 2.8% among 210,000. HEK293 SMN2-luciferase splicing reporter, luminescence, 30-36 h. Potency, µM (top dose mostly 46.1 µM), for the others: at the highest dose activity change, positive = activation, usual class: activators; note: % of control where 0% means no effect; nearly all actives have a fitted effect of over 55% in size
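HEK293 cells carry an SMN2 minigene-luciferase reporter in which exon 7 inclusion puts luciferase in frame. Cells were seeded at 2000 cells/well, attached for 10-12 hours, then exposed to compounds for 30-36 hours at 37C before ONE-Glo luminescence.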
Tau ThT inhib: qHTS for Inhibitors of Tau Fibril Formation, Thioflavin T Binding. recombinant tau K18 P301L (four-repeat tau fragment), heparin-induced fibrillization, ThT fluorescence. Microtubule-associated protein tau (Homo sapiens), P10636. hit rate 2.1% among 270,000. Potency, µM (highest dose often 57.4 µM), for the others: at the top dose activity, negative = inhibition, actives largely listed as inhibitors. AID 1460, 2008; note: % is set by controls: 0 for no effect and ±100 for the full control effect; nearly all actives have a fitted effect of over 55% in size
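K18 P301L tau (15 uM + 0.24 uM Alexa 594-tagged), heparin 20 uM, NaOAc pH 7, 6 h 37 C; ThT 30 uM, 1 h RT, ex 450/em 510 nm.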
JMJD2E inh: qHTS Assay for Inhibitors of Human Jumonji Domain Containing 2E (JMJD2E); JMJD2E catalytic domain, FDH-coupled NADH fluorescence (FDH is formaldehyde dehydrogenase); Lysine-specific demethylase 4E (Homo sapiens), B2RXH2; AID 2147, 2009; hit rate 1.6% among 230,000; Potency, µM (highest dose often 57.1 µM), without a hit: at the top dose activity change, negative = inhibition, most hits filed as inhibitors; active = well fitted inhibition curve with a large enough effect, not every such curve was filed as active; inconclusive = small, poorly fitted or top-dose-only effect, or another doubt; inactive = no such curve, though single readings can be large or run the other way;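 note: 0% = wells with enzyme and -100% = buffer wells without enzyme; nearly all actives have a fitted effect of over 50% in size; many of its hits are not listed in these tables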
Target sequence (B2RXH2 1-337 limits assumed): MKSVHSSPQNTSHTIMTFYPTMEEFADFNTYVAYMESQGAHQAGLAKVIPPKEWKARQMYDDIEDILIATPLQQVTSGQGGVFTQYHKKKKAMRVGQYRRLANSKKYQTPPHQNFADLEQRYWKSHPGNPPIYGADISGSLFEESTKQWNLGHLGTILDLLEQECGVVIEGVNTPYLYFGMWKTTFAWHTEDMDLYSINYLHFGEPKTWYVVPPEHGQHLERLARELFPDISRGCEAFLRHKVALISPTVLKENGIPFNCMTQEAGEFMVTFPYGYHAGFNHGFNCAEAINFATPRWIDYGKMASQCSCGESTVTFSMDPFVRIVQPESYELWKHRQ
HTT ATP protect: qHTS Multiplex Assay to Identify Dual Action Probes in a Cell Model of Huntington: Cytoprotection (ATP) | PC12 HTT-Q103 induced, cytoprotection, ATP luminescence, 40 h | AID 1471, 2008 | Potency, µM (doses to about 56.4 µM), without a hit: cytoprotection (ATP increase), most hits filed as activators | hit rate 0.14% among 230,000;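 note: % of control where 0% means no effect; nearly all actives have a fitted effect of over 45% in size; toxic huntingtin expression switched on by the ecdysone agonist tebufenozide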
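PC12 cells with ecdysone-inducible HTT exon 1 Q103-GFP, induced with 100 nM tebufenozide and co-treated with library compounds in a dose series (1536-well, 1500 cells/well). Cytoprotection read as ATP content by ATPlite luminescence.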
HTT aggregate: qHTS Multiplex Assay to Identify Dual Action Probes in a Cell Model of Huntington: Aggregate Formation (GFP); PC12 HttQ103-GFP aggregates, Acumen cytometry, 40 h; Potency, µM (series often up to 46.1 µM), without a hit: top-dose activity change, negative = inhibition, most hits filed as inhibitors; hit rate 1.1% among 220,000; AID 1688, 2009; note: % is set by controls: 0 for no effect and ±100 for the full control effect; nearly all actives have a fitted effect of over 60% in size
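Quantitative HTS on tebufenozide-induced (100 nM) PC12 cells stably expressing polyQ103 Huntingtin exon 1–GFP. Reduction of bright GFP aggregates, detected by laser scanning cytometry after lysis, identified actives across the titration.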
Active calls of the source: *; ? = inconclusive; . = not tested or not shown; [ ] = another dose, or the depositor's remark. Unless noted, calls come from the whole dose curve; as a rule, active = well fitted curve in the direction sought with a large enough effect; inconclusive = small, poorly fitted or top-dose-only effect, or another doubt; inactive = no such curve, though single readings can be large; an effect the other way counts as inactive or inconclusive. Potency is the fitted concentration of half-maximal effect.

SMILES	Tau fibril FP	Tau fluor cs	SMN2 splice up	Tau ThT inhib	JMJD2E inh	HTT ATP protect	HTT aggregate
Cc1ccccc1C(=O)N/N=C1/SCC(=O)N1Cc1ccccc1	-3%	-6%	4%	-6%	2%	.	.
COC(=O)Cn1c(=O)oc2ccc(C)cc21	5%	-4%	.	-5%	-3%	-1%[10 µM]	8%[9.22 µM]
COCCN(C(=O)CSc1nnc(-c2ccccc2F)n1C)c1c(N)n(Cc2ccccc2)c(=O)[nH]c1=O	3%	0%	-2%	1%	2%	?	1%
COc1ccc(C2(C(=O)NC(C)C)CCCC2)cc1OC	8%	0%	8%	0%	-6%	-3%[0.074 µM]	16%
O=C(COC(=O)c1n[nH]c(=O)c2ccccc12)c1ccccc1	-4%	-8%	19%	-6%	3%	-5%	-7%
CN1CCN(S(=O)(=O)c2ccc(NC(=O)c3ccc(F)cc3)cc2)CC1	2%	1%	8%	-1%	10%	-1%	-8%
COc1ccc(Br)cc1C(=O)O	1%	1%	9%	-2%	3%	-24%	-13%
CC/C(CC(C)(C)c1ccccc1)=N\O	-5%	-4%	-9%	-14%	13%	-7%[10 µM]	7%
O=C(Cc1ccc([N+](=O)[O-])cc1)N1N=C(C2CC2)CC1(O)C(F)(F)F (configuration not stated)	1%	-19%	-40%[inhibitor]	-11%	5%	-38%[inhibitor]	-4%
CCN(CC)S(=O)(=O)c1ccc(NC(=O)Cn2cnc3ccccc3c2=O)cc1	-11%	-15%	?	-2%	-7%	-2%	-10%
O=C(c1ccccc1)C1CCN(C(=O)Nc2ccccc2)CC1	3%	-7%	.	-10%	11%	10%[10 µM]	-15%[9.22 µM]
CCOC(=O)C1CCCN(C(=O)c2ccccc2Oc2ccccc2)C1 (configuration not stated)	9%	-4%	2%	-5%	4%	4%[10 µM]	27%
CCOc1cc(CNC(C)C)c(Cl)cc1OCC(=O)NCCc1ccccc1	-8%	-5%	-7%	-4%	2%	-10%	-20%
Clc1ccc(CN2CCN(c3ccccc3)CC2)cn1	5%	-2%	.	-3%	2%	-29%	29%
O=C(O)c1nn2c(C(F)(F)F)cc(-c3cccs3)nc2c1Cl	-2%	2%	-2%	-6%	-15%	-21%[10 µM]	-15%
O=C(c1ccco1)N1N=C(c2ccc(Br)cc2)CC1(O)C(F)(F)F (configuration not stated)	-1%	0%	2%	-6%	7%	-33%[inhibitor]	6%
c1cnc(N2CCN(c3ncnc4c3oc3ccccc34)CC2)nc1	-1%	-9%	.	?	-3%	-19%[0.074 µM]	-1%
COc1cccc(C(=O)COC(=O)CCC(=O)NC2CCCCC2)c1	8%	0%	16%	-2%	0%	?	-7%
CC(C)(C)NC(=O)COC(=O)c1cc(Cl)ccc1[N+](=O)[O-]	-5%	2%	-12%	0%	-4%	-13%[10 µM]	8%
COc1ccccc1NS(=O)(=O)c1cccc(NC(=O)Cc2cccs2)c1	-8%	-26%	-18%	0%	7%	8%[10 µM]	-7%
Cc1ccc(NC(=O)Cc2nn(C)c(=O)c3ccccc23)cc1F	?	-13%	-77%[inhibitor]	-6%	3%	-27%	3.5µM*
CNC(=O)CSc1nnnn1CCCOC	5%	-3%	14%	-5%	4%	-15%	-3%
CCOc1ccc(N(C(=O)CNC(=O)c2ccco2)C(C(=O)NC2CCCC2)c2ccncc2)cc1 (configuration not stated)	5%	4%	-1%	-5%	-1%	.	.
CCN(CC)CCNCc1ccc(OCc2ccc(Cl)nc2)c(OC)c1	4%	4%	?	6%	0%	.	2%
Cc1cc(N=Cc2cc(Cl)ccc2O)no1	-3%	5%	-11%	-5%	-5%	-1%	-10%
Cc1ccc(-n2nc(C)c(/C=N/NC(=O)c3cccnc3)c2Cl)cc1	-16%	-8%	13%	-12%	-1%	.	6%
Nc1nc(N2CCCCC2)nc(N2CCCCC2)n1	-1%	-3%	-21%	-19%	14%	-1%	-1%[9.22 µM]
O=C1c2ccccc2C(=O)N1CCc1csc(-c2cccc(F)c2)n1	-12%	-20%	-45%[inhibitor]	-14%	-1%	7%[10 µM]	-8%
N#CC1=C(N)C(C#N)(C#N)C(c2cccnc2)C2CC(c3ccccc3)CC=C12 (configuration not stated)	?	-29%	-16%	25µM*	?	?	?
CCN(CC)S(=O)(=O)c1cccc(C(=O)NCC(c2ccccc2)N(C)C)c1 (configuration not stated)	-3%	-7%	5%	-9%	4%	-30%	17%

Profiles as entered above. Order of values: Tau fibril FP, Tau fluor cs, SMN2 splice up, Tau ThT inhib, JMJD2E inh, HTT ATP protect, HTT aggregate
CCOc1ccc(N(C(=O)CNC(=O)c2ccco2)C(C(=O)NC2CCCC2)c2ccncc2)cc1 (configuration not stated) in the list: 5%, 4%, -1%, -5%, -1%, ., .
O=C1c2ccccc2C(=O)N1CCc1csc(-c2cccc(F)c2)n1 in the list: -12%, -20%, -45%[inhibitor], -14%, -1%, 7%[10 µM], -8%
CNC(=O)CSc1nnnn1CCCOC in the list: 5%, -3%, 14%, -5%, 4%, -15%, -3%
CCN(CC)S(=O)(=O)c1cccc(C(=O)NCC(c2ccccc2)N(C)C)c1 (configuration not stated) in the list: -3%, -7%, 5%, -9%, 4%, -30%, 17%

The listing picks up with the two entries that preceded the break.
SMILES	Tau fibril FP	Tau fluor cs	SMN2 splice up	Tau ThT inhib	JMJD2E inh	HTT ATP protect	HTT aggregate
N#CC1=C(N)C(C#N)(C#N)C(c2cccnc2)C2CC(c3ccccc3)CC=C12 (configuration not stated)	?	-29%	-16%	25µM*	?	?	?
CCN(CC)S(=O)(=O)c1cccc(C(=O)NCC(c2ccccc2)N(C)C)c1 (configuration not stated)	-3%	-7%	5%	-9%	4%	-30%	17%
CC(C)Oc1ccc(-c2cc(=O)[nH]c(=O)[nH]2)cc1	9%	-7%	1%	-21%	3%	5%[10 µM]	4%
CCC(=O)NCCNC(=O)c1c(SC)nsc1SC	-4%	0%	-12%	-1%	3%	-36%	12%
O=C(Nc1nc2ccccc2n1Cc1ccccc1)c1ccco1	-5%	-5%	-11%	-7%	?	-5%	?
Cc1cccc(C(C#N)c2ccc(Cl)nn2)c1 (configuration not stated)	0%	2%	-10%	-1%	-11%	-20%[10 µM]	-3%

A portion of the library, so the mix of outcomes need not match the whole.
